Biofilm kill mix: clotrimazole potentiators killing C. albicans biofilm, primary screen, 4-compound mixtures | C. albicans biofilm persisters + clotrimazole, fluorescence viability; primary screen in compound mixtures of four per well | inhibition, % at 7.6 µM | actives 0.02% (n = 120,000) | AID 1242, 2008;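 active = inhibition above 30.3% in the primary screen of four-compound pools, then above 30% when the compound was retested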;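 also: compounds exposed to preformed 24 h biofilms for 48 h; the number belongs to the whole pool; some results filed as inactive read as strong as hits; inactives centre near 12; 0% = biofilm with clotrimazole alone and 100% = kill control; retested singly at about 60 µM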
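Probe or stimulus – Clotrimazole 50 µg/mL co-treatment · System – C. albicans biofilms · Schedule – 24 h biofilm formation, then 48 h compound exposure, 37 °C · Evaluation – percent inhibition of biofilm viability · Technique – 2-h Alamar Blue fluorescence, 535/590 nm excitation/emission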
Active calls of the source: *. Some of the compounds tested; the hit share may differ from the screen's.

entry	molecule	Biofilm kill mix
1	Cn1cccc1/C=C1\SC(=S)N(NC(=O)c2ccc(Cl)cc2)C1=O	9.2
2	Cc1cccc(NC(=O)CSc2nnc(NC(=O)CN3CCCCC3)s2)c1	8.2
3	Cn1cc(CNC(=O)c2sc3cccc(Cl)c3c2Cl)cn1	7.0
4	CCCOC(=O)c1ccc(Oc2cn[nH]c2-c2ccc(OCC(=O)NN)cc2O)cc1	8.2
5	CSc1nncc(-c2ccccc2)n1	14.7
6	CCCCNc1cc(C(=O)O)cc(S(N)(=O)=O)c1Oc1ccccc1	10.8
7	Cc1ccc(NC(=O)c2ccc3ccccc3n2)cc1S(=O)(=O)N1CCOCC1	12.0
8	Cn1c(=O)c2c(nc(Sc3ncnn3CC(=O)N3CCOCC3)n2C)n(C)c1=O	16.2
9	N=c1oc2ccccc2cc1-c1nc(-c2ccc(Cl)cc2)cs1	5.4
10	CCn1cc(C(=O)OCC(=O)c2ccc(Cl)cc2)c(=O)c2ccc(C)nc21	9.1
11	Cc1ccc(NC(=S)NC(=O)c2ccc(F)cc2)cc1S(=O)(=O)Nc1ccccc1Cl	7.5
12	COc1ccccc1NS(=O)(=O)c1cc(NC(=S)Nc2cc(C)cc(C)c2)ccc1Cl	21.4
13	Cc1c(NC(=O)CSc2ccc(Cl)cc2)cccc1-c1nc2cc(Cl)ccc2o1	18.3
14	CCn1c(CCNC(=O)c2cccs2)n[nH]c1=S	9.6
15	CN(CC(=O)Nc1ccc(F)cc1)C(=O)COc1ncnc2ccccc12	14.5
16	O=C(/C=C/c1ccco1)NCCc1ccccc1	17.6
17	CCC(C)NS(=O)(=O)c1ccc(OCC(=O)N2CCC(C)CC2)cc1 (stereo unspecified)	15.0
18	CSCCC(N=C(NS(=O)(=O)c1ccc(C)cc1)c1ccccc1)C(=O)O (stereo unspecified)	31.7
19	c1ccc(-c2noc(-c3ccc4c(c3)OCO4)n2)cc1	15.4
20	Cc1oc2c(c1C(=O)O)C(=O)c1ccccc1C2=O	3.6
21	O=C(COC(=O)CNC(=O)c1ccc(Br)o1)Nc1ccccc1OC(F)F	22.3
22	CCOc1ccc(NC(C)C(=O)N/N=C/c2cccs2)cc1 (stereo unspecified)	17.6
23	Cn1cc(Br)c(C(=O)Nc2nccs2)n1	7.8
24	COc1ccc(N(C(C)C(=O)N2CCC(Cc3ccccc3)CC2)S(C)(=O)=O)cc1 (stereo unspecified)	14.8
25	C=CCn1c(SCC(=O)N(C)C2CCS(=O)(=O)C2)nc2ccccc2c1=O (stereo unspecified)	6.8
26	CCn1c(C)nc2cc(C(=O)N/N=C/c3ccc(N4CCOCC4)cc3)ccc21	9.9
27	CCCCC1C2C(=O)N(c3ccccc3)C(=O)C2ON1c1ccccc1 (stereo unspecified)	7.7
28	Cc1ccccc1C(=O)NCCCCc1ccccc1	8.7
29	O=C(/C=C/c1ccco1)Nc1cccnc1	10.2
30	Cc1nnc(SC(C)C)n(N)c1=O	14.7

(next part)
entry	molecule	Biofilm kill mix
31	CCCCS(=O)c1c(O)c2ccccc2[nH]c1=O (stereo unspecified)	7.6
32	CCn1c(SCc2ccccc2Cl)nc2nc3c(cc2c1=O)CCCC3	12.6
33	O=C1Nc2ccccc2/C1=N\N1CCOCC1	21.3
34	Cc1ccc(CSCC(=O)Nc2ccc(F)cc2)cc1	15.6
35	CN(C)c1nnnn1-c1ccc(Cl)cc1Cl	-3.0
36	O=C(NCC1CCCO1)c1cccnc1NCc1ccc(F)cc1 (stereo unspecified)	16.3
37	O=C(NC(Cc1c[nH]c2ccccc12)C(=O)Nc1ccc(OC(F)(F)F)cc1)c1cccs1 (stereo unspecified)	2.2
38	O=c1[nH]c(N2CCN(Cc3ccc4c(c3)OCO4)CC2)nc2c1CCCC2	6.7
39	O=c1[nH]c2ccc(N/C(=N/S(=O)(=O)c3ccccc3)c3ccccc3)cc2[nH]1	-0.4
40	Oc1ccc(C(=S)N2CCN(Cc3ccccc3)CC2)cc1	22.4
41	COc1ccc(/C=N/NC(=O)C(=O)NCC2CCCO2)cc1 (stereo unspecified)	21.4
42	COc1ccc(C)cc1NC(=O)NNC(=O)C1CCC(C(C)(C)C)CC1 (stereo unspecified)	2.7
43	Cn1cnnc1SCC(=O)NNC(=O)c1ccc(Cl)cc1	-4.3
44	CCOC(=O)Cc1csc(NC(=O)Cn2c(=O)oc3ccccc32)n1	12.2
45	NC(=O)COC(=O)CCCSc1nc2ccccc2s1	5.4
46	CN(Cc1ccco1)C(=O)c1c[nH]c2ccc(S(=O)(=O)Nc3ccc4c(c3)OCCO4)cc2c1=O	8.2
47	CCCCNC(=O)CSc1nc(O)c(Cc2ccc(OC)cc2)c(=O)[nH]1	27.4
48	CC(=O)Nc1sc2c(c1C(N)=O)CCN(Cc1ccccc1)C2	21.0
49	COc1ccc(NS(=O)(=O)c2ccc(NC(=S)NC(=O)/C=C/c3ccc(C)cc3)cc2)nn1	6.1
50	CC(C)(C)c1ccc(C(=O)NC(=S)Nc2sc3c(c2C#N)CCC3)cc1	8.1
51	CNc1nc(Cl)c(SC)c(NC2CCCCC2)n1	12.1
52	Cc1ccc(C(=O)OCC(=O)Nc2cccc(Cl)c2C)c(O)c1	21.2
53	CCO[C@H]1OC(C(N)=O)=C[C@@H](c2csc3ccccc23)[C@@H]1CCCO	14.2
54	N/C(=N\NS(=O)(=O)c1cc(C(F)(F)F)cc(C(F)(F)F)c1)c1ccccn1	21.6
55	O=c1cc(C(F)(F)F)[nH]c2ccccc12	9.6
56	Fc1ccccc1C1CCN(Cc2nc(CC3CC3)no2)C1 (stereo unspecified)	-0.2
57	Cc1[nH]c2ccccc2c1/C=N/Nc1ccc(F)cc1F	0.8
58	Cc1ccc(NC(=O)c2ccc(Cl)cc2[N+](=O)[O-])nc1	10.1
59	O=C(NCCCc1nc2ccccc2[nH]1)c1cccs1	9.7
60	O=C1/C(=N\S(=O)(=O)c2cccs2)C([n+]2ccccc2)=C([O-])c2ccccc21	10.9

Next part
entry	molecule	Biofilm kill mix
61	O=C(COc1ccccc1-c1ccccc1)NN=C1CCCC1	0.8
62	Cc1ccc(-n2cnc(N)c2C(=O)c2cccc([N+](=O)[O-])c2)cc1	13.8
63	CC1Oc2ccccc2C=C1/C=N/Nc1ccc(C(=O)O)cc1 (stereo unspecified)	26.4
64	COc1cc(C)c(NC(=S)NCCCN2CCOCC2)cc1OC	9.5
65	CCC(C)NC(=O)COC(=O)c1ccccc1OCC(=O)Nc1ccc(Br)cc1 (stereo unspecified)	13.8
66	CCN(CC)C(=S)SC1CCCCN(C(=O)c2ccccc2)C1=O (stereo unspecified)	7.0
67	COc1ccc(NCC(=O)n2c(C)c(C)c3ccccc32)cc1	11.6
68	O=C(O)Cc1ccc(NC(=O)C(c2ccccc2)c2ccccc2)cc1	-1.8
69	Cc1ccc(NC(=O)COC(=O)c2ccc3c(c2)OCO3)cc1S(=O)(=O)N1CCCCC1	6.7
70	CC(C)C(OC(=O)c1oc2ccccc2c1CSC1CCCCC1)C(=O)NC(N)=O (stereo unspecified)	7.2
71	O=C(NC1(C(F)(F)F)NC(=O)N(c2ccccc2F)C1=O)c1ccncc1 (stereo unspecified)	13.8
72	Cc1c(CN(C)Cc2cn(C)nc2-c2ccccc2F)[nH]c2ccccc12	18.2
73	O=C(N/N=C1/CCS(=O)(=O)c2ccc(F)cc21)c1ccccn1	4.2
74	CCNC(=O)COC(=O)c1ccc(NS(=O)(=O)c2ccc3c(c2)OCCO3)cc1	5.2
75	COc1ccc(Cl)cc1NC(=O)NC(C)C	-0.3
76	O=C(c1ccccc1)c1cc2c(cc1[N+](=O)[O-])OCCO2	9.4
77	N#C/C(=C\c1ccc(Br)s1)C(=O)N1CCN(c2ccccc2)CC1	18.0
78	CC(c1ccccc1)N1C(=O)C2C3CCC(C3)C2C1=O (stereo unspecified)	20.5
79	O=C(CSc1nnc(-c2ccncc2)n1CCc1ccccc1)NCc1ccccc1	14.9
80	O=C(Nc1ccc(N2CCN(Cc3ccccc3F)CC2)cc1)c1ccccc1[N+](=O)[O-]	31.4
81	CSc1cccc(NC(=O)Nc2ccccc2C(N)=O)c1	5.5
82	O=C1/C(=C\c2ccncc2)SC(=S)N1C1CCCCC1	6.6
83	COc1ccc([N+](=O)[O-])cc1NC(=O)C(C)N1CCN(C(=O)c2ccco2)CC1 (stereo unspecified)	12.2
84	CCCn1c(N)c(C(=S)NC(=O)C2CC2)c(=O)n(C)c1=O	20.7
85	O=C(NC1CCc2ccccc21)c1cc(COc2ccc(F)cc2F)on1 (stereo unspecified)	-9.8
86	CN(C)c1ccnc2sc3c(NCC(O)CO)ncnc3c12 (stereo unspecified)	-7.7
87	Cc1ccc(CN2CCSCC2)c(C)c1	12.9
88	O=C(NN1C(=O)/C(=C/c2cccs2)SC1=S)c1ccncc1	31.6
89	Cc1cc(O)ccc1NC(=O)CCN1C(=O)c2ccc([N+](=O)[O-])cc2C1=O	-6.6
90	CC(C)C[C@H](NC(=O)NC1CCCc2ccccc21)C(=O)O (stereo partly specified)	29.3

(cont.)
entry	molecule	Biofilm kill mix
91	COc1ccc(-c2csc(NC(=O)c3ccc(OCC(=O)N4CCOCC4)c(OC)c3)n2)cc1OC	7.1
92	CCCCOc1ccc(Cc2c(COCC)[nH]c(=S)[nH]c2=O)cc1	11.8
93	Cc1cc(CNC(=O)COc2ccc(F)cc2Cl)cc(C)c1O	12.8
94	COC(=O)c1cc(NC(=O)C2(S(=O)(=O)c3ccc(C)cc3)CC2)cc(C(=O)OC)c1	12.7
95	COc1cccc(/C=C2\SC(=O)NC2=O)c1OCc1ccc(C(=O)O)cc1	7.4
96	O=C1CN(C(=O)COC(=O)CCNS(=O)(=O)c2ccc(Cl)cc2)c2ccccc2N1	10.0
97	O=C(CSCc1ccc(F)cc1)Nc1ccc(F)cc1	6.2
98	O=C(CCc1nnc(CCCc2ccccc2)o1)NCC(F)(F)F	-0.5
99	COc1ccc(-c2cc(C(=O)Nc3nc4ccccc4s3)c3ccccc3n2)cc1OC	10.6
100	Cc1ccccc1CN1C[C@@H]2C[C@@H](c3ccc4nsnc4c3)N3CCC[C@@]23C1=O	8.4
101	COc1ccc(SCCN2CCN(CC(C)C)CCC2=O)cc1	12.5
102	COCCCNCCCOc1ccc(C(C)(C)c2ccccc2)cc1	11.9
103	CCS(=O)(=O)c1ccc2oc(Nc3ccc(C(C)(C)C)cc3)nc2c1	11.9
104	CC(=O)n1c(C=Nc2ccc(Cl)cc2)c(O)c2ccccc21	11.3
105	CS(=O)(=O)N(CC(=O)NCC1CCCO1)c1cccc([N+](=O)[O-])c1 (stereo unspecified)	-6.9
106	COc1ccc(CCNC(=O)C2CCCN(c3nc(C)cc(C)n3)C2)cc1 (stereo unspecified)	9.1
107	CCN1C(=O)N[C@@H](c2cccs2)C(C(C)=O)=C1C	7.2
108	COc1ccccc1/C=C/C(=O)OCC(=O)NCCC1=CCCCC1	6.3
109	Cc1cc(C)cc(-n2c(SC(C)C(=O)NCc3ccc4c(c3)OCO4)nc3ccccc3c2=O)c1 (stereo unspecified)	-7.0
110	COc1ccc2[nH]cc(CCNC(=S)NCCc3ccccc3)c2c1	10.1
111	O=C(CSc1ccccc1)Nc1ccc(C(=O)Nc2ccc(O)cc2)cc1	22.7
112	COc1ccc(NC(=S)N(CCc2c(C)[nH]c3ccccc23)Cc2cccnc2)cc1	10.9
113	Cc1ccc(NC(=O)COc2cccc(/C=C3\SC(=S)N(CCC(=O)O)C3=O)c2)cc1Cl	16.1
114	O=C(COn1nnc2ccccc21)N1CCN(Cc2ccccc2)CC1	0.2
115	Cn1c(-c2cc3ccccc3oc2=O)nc2ccccc21	15.0
116	CCOC(=O)c1sc2nc3c(SCC(=O)O)cc(C(=O)c4ccccc4O)cn3c(=O)c2c1C	17.8
117	[N-]=C=C1C(=S)NC(=O)[C@H]([n+]2ccccc2)[C@H]1c1ccc(Cl)cc1	2.7
118	COc1ccc(C2=C/C(=C/c3cccnc3)C(=O)O2)cc1OC	13.1
119	COc1ccc(NC(=O)Nc2nc(C)cc(C)n2)c(OC)c1	11.7
120	O=C(NC(=S)N1CCCCCC1)C1CC1	11.9

Next part.
entry	molecule	Biofilm kill mix
121	Cc1ccc2ncnc(Oc3ncccc3NC(=O)C(C)(C)C)c2c1	3.3
122	Cc1cc(C(=O)Nc2cccc3cccnc23)ccc1[N+](=O)[O-]	29.1
123	NS(=O)(=O)c1ccc(NC2=CC(c3ccc([N+](=O)[O-])cc3)N(c3ccc(S(N)(=O)=O)cc3)C2=O)cc1 (stereo unspecified)	17.5
124	S=C(Nc1ccc(Br)cc1)N1CCCC1	15.2
125	O=c1[nH]cc([N+](=O)[O-])cc1Br	12.1
126	CN(CC#CC1(O)c2ccccc2-c2ccccc21)Cc1ccccc1	6.4
127	Cc1cc(NC(=S)N(Cc2ccc(Br)cc2)Cc2ccc(C(=O)O)cc2)ccc1Cl	13.6
128	COc1ccc(C2C(C(=O)c3cccs3)=C(O)C(=O)N2Cc2cccnc2)cc1OC (stereo unspecified)	-0.9
129	CCOC(=O)C1CCN(C(=O)Nc2ccc(Cl)cc2Cl)CC1	14.5
130	NS(=O)(=O)c1ccc(NC(=O)c2ccc(S(=O)(=O)N3CCc4ccccc43)cc2)cc1	11.6
131	CCOc1ccc2nc(NCCNC(=O)C(C)(C)C)c(C)cc2c1	10.1
132	COC(=O)c1ccc(CNC(=O)c2ccc(COc3ccccc3)cc2)cc1	15.5

An excerpt from above in order of molecular weight, low to high.
entry	molecule	Biofilm kill mix
124	S=C(Nc1ccc(Br)cc1)N1CCCC1	15.2
121	Cc1ccc2ncnc(Oc3ncccc3NC(=O)C(C)(C)C)c2c1	3.3
126	CN(CC#CC1(O)c2ccccc2-c2ccccc21)Cc1ccccc1	6.4
129	CCOC(=O)C1CCN(C(=O)Nc2ccc(Cl)cc2Cl)CC1	14.5
123	NS(=O)(=O)c1ccc(NC2=CC(c3ccc([N+](=O)[O-])cc3)N(c3ccc(S(N)(=O)=O)cc3)C2=O)cc1 (stereo unspecified)	17.5
